Screening results from PubChem BioAssay.
RGS16-Gao HTS: RGS16-Galphao interaction regulator (human); O15492+P09471; bead-based flow cytometry RGS16-Galphao binding, fluorescence; actives lie on both sides; binding response (% of control), % at 10 µM; 0.38% of 220,000 active; AID 1441;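 active = below 25% or above 175%, edge rows of some plates excepted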;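 note: Galphao activated by GDP with aluminum fluoride before binding; 100% = wells without compound and 0% = beads without RGS; some results beyond the cut were filed as inactive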
Target sequence (O15492 whole entry, looked up): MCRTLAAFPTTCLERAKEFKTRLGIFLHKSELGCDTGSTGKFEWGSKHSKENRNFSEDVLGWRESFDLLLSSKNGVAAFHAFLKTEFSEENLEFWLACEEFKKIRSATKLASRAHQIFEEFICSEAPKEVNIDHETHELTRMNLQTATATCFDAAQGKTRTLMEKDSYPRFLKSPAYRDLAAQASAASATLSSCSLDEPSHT
Target sequence (P09471 whole entry, looked up): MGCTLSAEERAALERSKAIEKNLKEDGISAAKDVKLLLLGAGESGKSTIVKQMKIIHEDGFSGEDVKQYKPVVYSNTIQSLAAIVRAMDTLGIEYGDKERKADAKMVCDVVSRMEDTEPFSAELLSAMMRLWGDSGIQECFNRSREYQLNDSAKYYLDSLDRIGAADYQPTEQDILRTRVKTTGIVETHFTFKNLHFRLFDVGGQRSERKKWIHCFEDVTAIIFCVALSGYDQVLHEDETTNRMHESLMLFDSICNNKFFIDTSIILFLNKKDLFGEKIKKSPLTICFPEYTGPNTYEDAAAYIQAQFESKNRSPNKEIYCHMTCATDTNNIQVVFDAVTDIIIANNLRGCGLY
Insulin prom inh: TRM-6 insulin promoter activity inhibition. TRM-6 cells (human fetal islet line), insulin promoter-eGFP reporter, imaging; reporter expression induced with tamoxifen. inhibition, % at 2 µM. 0.9% of 130,000 active. AID 1273;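 active = inhibition above the mean plus 3 SD, with well images judged a real hit on visual review, cut at about 60% in these data, passing the limit was not always enough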
GALR2 ag: agonists of human galanin receptor 2 (GALR2). O43603. GALR2-expressing cells, agonist activation read-out. activation, %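 (tested at 5 µM)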. 0.48% of 140,000 active. AID 803;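 active = above mean plus 3 SD of all compounds, about 5% in these data, not always enough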;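 note: 0% = vehicle buffer wells and 100% = reference agonist at full effect; tested in CHO reporter cells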
Target sequence (O43603 whole entry, looked up): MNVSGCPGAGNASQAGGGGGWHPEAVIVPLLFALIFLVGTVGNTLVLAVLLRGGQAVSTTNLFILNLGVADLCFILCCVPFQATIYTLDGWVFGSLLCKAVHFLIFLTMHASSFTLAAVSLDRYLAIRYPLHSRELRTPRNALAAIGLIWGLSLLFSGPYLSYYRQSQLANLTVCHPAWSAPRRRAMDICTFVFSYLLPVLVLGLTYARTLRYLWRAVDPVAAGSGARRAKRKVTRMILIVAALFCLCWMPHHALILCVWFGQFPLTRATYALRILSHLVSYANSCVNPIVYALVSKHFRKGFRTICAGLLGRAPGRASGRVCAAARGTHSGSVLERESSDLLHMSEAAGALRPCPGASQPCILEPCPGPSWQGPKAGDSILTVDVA
PKD1 inh: blocks activity of human protein kinase D1; 0.056% of 200,000 active; inhibition, %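 (about 10 µM by stock and volumes)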; PKD1 kinase fluorescence polarization assay; AID 797;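 active = inhibition of 50% or more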;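 note: controls were vehicle for no effect and a reference inhibitor for full effect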
HSV replic up: increases HSV replication in cells. maximum fold increase. HSV replication augmentation in cells, fold increase. 0.005% of 220,000 active;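 active = peak rise of 1.5-fold or more in the series; tested in PC3 cells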;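 note: first round at 10 µM; read as green reporter fluorescence; hits show the peak of a series up to 25 µM; 1 = signal of infected wells without compound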
Insulin prom inh cell count: also measured in Insulin prom inh; calls as there; normalized cell count, %; measured here: cell count, toxicity; reference of the scale not given here;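 cells exposed to compound for 48 h; stained nuclei by imaging scaled within each plate; lower means fewer cells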
HSV replic up primary fold: second read-out of HSV replic up, no call of its own (marks repeat the call); fold increase; compound at 10 µM; measured here: primary screen fold increase 10 uM; tested in PC3 cells;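 GFP signal in the first replicate; 1 = infected wells without compound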
* = called active by the depositor; i = inactive; . = no result given.

Every second line gives: RGS16-Gao HTS	Insulin prom inh	Insulin prom inh cell count	GALR2 ag	PKD1 inh	HSV replic up	HSV replic up primary fold
- CCn1nc(C)cc1C(=O)Sc1ccc(C)cc1
→ 100	.	.	.	.	i	0.97
- CC1OC23CCCCC2C(C#N)(C(=N)O3)C1(C#N)C#N (centres undefined)
→ 110	77*	92*	0.1	-5	i	1.2
- COc1ccc(N2CCN(C(=O)Cn3cnc4c(cnn4-c4ccccc4)c3=O)CC2)cc1
→ 45	36	89	.	3	i	1
- COc1cc(/C=N/NC(=O)c2nonc2C)ccc1O
→ 99	11	123	.	1	i	1.1
- N/C(=N\OC(=O)CCC1CCCCC1)c1cccc([N+](=O)[O-])c1
→ 99	0	141	-2.0	0	i	0.78
- COc1ccc(CNC(=O)Nc2cccs2)cc1OC
→ 97	0	104	-1.9	12	i	1
- COCn1c(-c2ccc(OC)cc2)nc2ccccc21
→ 107	92*	124*	-2.0	-4	i	0.98
- CN(C#N)c1nc(Cl)nc(Nc2cccc(Cl)c2)n1
→ 94	-33	85	0.4	14	i	0.99
- COc1ccc(C(=O)Nc2ccc(C3=NNC(=O)CC3C)cc2NC(=O)c2ccc(OC)cc2)cc1 (centres undefined)
→ 103	.	.	.	-7	i	0.92
- COc1ccc(-n2cnc(N)c2C(=O)c2cccc([N+](=O)[O-])c2)cc1
→ 100	-100	127	-0.4	7	i	0.85
- O=C(NN1CCOCC1)c1cc(-c2ccccc2)nc2ccccc12
→ 95	.	.	-1.2	-3	i	0.71
- COc1cccc(CNc2ncnc3cc(OC)c(OC)cc23)c1
→ 103	17	104	-1.4	6	i	0.85
- CC1(C)COC(/C=C/c2ccc([N+](=O)[O-])cc2)=N1
→ 118	58	98	-0.5	-9	.	.
- CN1CCN(NC(=O)c2ccc(Cl)c(S(=O)(=O)Nc3ccc(Cl)cc3)c2)CC1
→ 110	.	.	.	.	i	1
- COCCCNCC(O)COc1ccccc1F (centres undefined)
→ 100	.	.	.	-3	i	0.91
- CN(C)c1ccc(/C=N/NC(=O)c2ccco2)cc1
→ 105	8	108	-1.4	-1	i	0.88
- NNC(=O)Nc1cccc(C(F)(F)F)c1
→ 101	.	.	.	-5	i	1.1
- O=C(Cn1c(=O)n(CC(=O)NCc2ccccc2)c2ccccc21)NCc1ccccc1
→ 109	.	.	-1.1	-5	i	0.82
- Cc1cccc2[nH]c3c(N4CCN(C(=O)c5ccco5)CC4)ncnc3c12
→ 94	.	.	-1.8	-2	i	0.7
- CC(=O)Nc1ccc(-c2cn3cc(C)ccc3n2)cc1
→ 117	-28	120	-0.2	4	i	0.97
- O=C(N/N=C/c1ccncc1)c1ccc(NC(=O)c2cccc(Cl)c2)cc1
→ 102	7	115	.	-7	i	1
- COCCn1c(CN2CCN(c3ccccc3)CC2)nc2c1c(=O)n(C)c(=O)n2C
→ .	33	140	-0.8	-4	i	0.99
- Cc1nc2ccc(NC(=O)CCS(=O)(=O)c3ccccc3)cc2s1
→ 89	32	68	-0.6	-6	i	1.1
- O=C(/C=C/c1ccco1)Nc1nnc(-c2ccco2)s1
→ 100	.	.	.	-8	i	0.82
- CCC(C)(C)NC(=O)C(c1ccncc1)N(Cc1ccc(C)cc1)C(=O)c1csnn1 (centres undefined)
→ 103	0	60	-1.7	-7	i	1
- CCCOc1ccc(Cc2nc(N)nc(N)n2)cc1
→ 94	-82	80	-0.2	-11	i	0.97
- CCn1c(SCC(=O)Nc2ccc(OC)c(OC)c2)nnc1-c1c[nH]c2ccccc12
→ 100	.	.	-1.2	4	i	0.88
- CCCN(N=Nc1cccc([N+](=O)[O-])c1)c1cccc([N+](=O)[O-])c1
→ 68	3	109	-1.3	1	i	0.77
- ONC=Nc1cccc2nonc12
→ 74	.	.	-1.6	-3	i	1
- O=C(NCC(=O)N(Cc1ccco1)C(C(=O)NC1CCCCC1)c1cccnc1)c1cccs1 (centres undefined)
→ 103	-37	94	-2.4	0	i	0.87
- COCCCNC(=S)NNC(=O)Cn1nc(C)c(Br)c1C
→ 110	.	.	-1.0	-13	i	1.1
- CCN(C(=O)COC(=O)c1ccc2[nH]c3c(c2c1)CCCC3)C1CCS(=O)(=O)C1 (centres undefined)
→ 101	.	.	.	-1	i	0.96
- Cc1ccc2c(C)c(C(=O)Nc3ccc(S(N)(=O)=O)cc3)oc2c1C
→ 104	.	.	.	-2	i	0.9
- O=C(Nc1ccon1)C(Sc1ccccc1)c1ccccc1 (centres undefined)
→ 105	69	127	-2.7	-15	i	1.3
- C#CCOCCOCCOCCNc1nc(N2CCN(C(=O)C(Cc3ccc(O)cc3)n3cc(C(N)CC(C)C)nn3)CC2)nc(N2CCN(C(=O)C(Cc3ccc(O)cc3)n3cc(C(N)C(C)CC)nn3)CC2)n1 (centres undefined)
→ 100	.	.	.	1	i	0.94
- CSc1cccc(NC(=O)CCC(=O)O)c1
→ 105	.	.	0.4	-3	i	0.91
- CCn1c(CNC(=O)c2ccc(OC)cc2)nnc1SC
→ 106	.	.	-2.9	12	i	0.89
- COc1cc(/C=N/NC(=O)CN2CCCCC2)ccc1OCc1ccccc1
→ 109	-35	50	-1.3	-5	i	1.2
- O=S(=O)([N-]c1nc2ccccc2nc1-n1cc[n+](Cc2ccccc2)c1)c1ccccc1
→ 91	.	.	.	.	i	1
- CSc1ccc(/C=N/N2CCN(C)CC2)cc1
→ 97	.	.	.	1	i	0.93
- CCCN(CCC)CCCNC(=S)Nc1ccc2nc(N3CCN(C)CC3)cc(C)c2c1
→ 96	.	.	.	-4	i	0.81
- COc1ccc(OCCCON2C(=O)c3ccccc3C2=O)cc1
→ 99	4	119	-1.2	-5	i	0.74
- Brc1ccccc1OCCCCn1cnc2ccccc21
→ 101	.	.	.	-1	i	0.87
- CNC(=O)COC(=O)c1cc(NC(=O)c2ccco2)c(OC)c(OC)c1
→ 101	17	105	0.0	-5	i	0.99
- O=C(O)CSc1ncnc2nc[nH]c12
→ 111	.	.	-1.3	-10	i	0.98
- O=C(NCc1ccc(Cl)cc1)c1cc2c(nc3sccn32)s1
→ 104	-27	129	-1.2	4	i	0.91
- O=C(CN1CCN(c2ccccc2)CC1)Nc1nccs1
→ 103	38	132	-3.1	3	i	0.83
- Cc1sc2nc3c(SC(C)C(=O)O)cc(C(=O)c4ccccc4O)cn3c(=O)c2c1C (centres undefined)
→ 68	14	87	-1.2	4	i	1.2
- COc1ccc(NS(=O)(=O)c2ccc(OC)c(OC)c2)cc1OC
→ 98	30	94	-1.7	-5	i	0.79
- O=C(CSc1nc(-c2ccco2)cc(C(F)(F)F)n1)Nc1ccc2c(c1)OCO2
→ 69	-94	124	-0.2	-2	i	0.69

The list goes on:
Every second line gives: RGS16-Gao HTS	Insulin prom inh	Insulin prom inh cell count	GALR2 ag	PKD1 inh	HSV replic up	HSV replic up primary fold
- Cc1ccc(OCc2nnc(SCC(=O)N3c4ccccc4Sc4ccc(Cl)cc43)o2)cc1
→ 115	-10	110	-1.3	-7	i	0.97
- COc1cccc(C2C(C(=O)/C=C/c3ccco3)=C(O)C(=O)N2CCN2CCOCC2)c1 (centres undefined)
→ 103	-31	70	.	-3	i	1.1
- Nc1ncnc2c1ncn2C1CCC(CO)C(O)C1 (centres undefined)
→ 101	-96	83	-1.0	-3	i	1
- COCCNC(=O)CSc1nnc(-c2ccccc2F)n1Cc1ccccc1
→ 109	.	.	.	7	i	0.89
- COc1cccc(-c2nnc(NC(=O)C3CCCCC3)o2)c1
→ 102	.	.	0.8	2	i	1
- COc1ccc(Cl)cc1NC(=O)C1CC(=O)N(c2ccc(F)cc2)C1 (centres undefined)
→ 105	-88	112	-1.8	-4	i	0.83
- CCOc1ccc(C(C)=O)cc1CSc1nnc(N)s1
→ 86	3	132	.	3	i	1.1
- Oc1ccc(CNc2ccc(F)cc2)c2cccnc12
→ 92	.	.	-1.3	-7	i	0.89
- Clc1ccccc1Nc1ncnc2c1nnn2Cc1ccccc1
→ 102	.	.	-0.7	4	i	1.1
- Clc1ccc(-c2nc3ncccn3c2Nc2ccc3c(c2)OCO3)cc1
→ 92	11	54	-0.5	0	i	0.86
- Cc1nnc2c(Oc3ccccc3)nc3ccccc3n12
→ 98	-131	63	-0.2	0	i	0.93
- O=C(N/N=C/c1ccc[nH]1)c1ccc(COc2cccc3cccnc23)cc1
→ 99	.	.	.	2	i	0.69
- Cc1nc2ccccc2c(=O)[nH]1
→ 77	-11	67	-2.6	-4	i	0.95
- O=C(CCn1c(=O)c2ccccc2n(CC(=O)NC2CCCC2)c1=O)NCc1ccco1
→ 79	7	144	-2.7	-8	i	1
- N#Cc1c(NC(=O)CSc2nnc(-c3ccco3)n2-c2ccccc2)sc2c1CCC2
→ 86	54	129	-2.4	-1	i	1.1
- COc1ccc(C(=O)C(OC(=O)CNC(=O)c2ccco2)c2ccccc2)cc1 (centres undefined)
→ 98	-9	113	-2.2	-8	i	0.95
- COc1cccc(NC(=O)c2cc(CN3C(=O)c4ccccc4C3=O)ccc2OC)c1
→ 79	35	119	0.2	-1	i	0.98
- C/C(=N\NC(=S)NCc1ccccc1)c1ccc(Cl)s1
→ 103	.	.	.	-1	i	0.95
- Clc1ccccc1-c1nc2ccccc2c2nncn12
→ 67	23	112	-0.8	-2	i	1.1
- NC(=O)CC(NC(=O)Cc1cccc2ccccc12)c1ccc(NC2CCC2)c([N+](=O)[O-])c1 (centres undefined)
→ 95	.	.	.	.	i	1

The final 4 records of the part above are carried over, then new ones follow.
Every second line gives: RGS16-Gao HTS	Insulin prom inh	Insulin prom inh cell count	GALR2 ag	PKD1 inh	HSV replic up	HSV replic up primary fold
- COc1cccc(NC(=O)c2cc(CN3C(=O)c4ccccc4C3=O)ccc2OC)c1
→ 79	35	119	0.2	-1	i	0.98
- C/C(=N\NC(=S)NCc1ccccc1)c1ccc(Cl)s1
→ 103	.	.	.	-1	i	0.95
- Clc1ccccc1-c1nc2ccccc2c2nncn12
→ 67	23	112	-0.8	-2	i	1.1
- NC(=O)CC(NC(=O)Cc1cccc2ccccc12)c1ccc(NC2CCC2)c([N+](=O)[O-])c1 (centres undefined)
→ 95	.	.	.	.	i	1
- Cc1c(NC(=O)/C(C#N)=C/c2ccc(-c3ccc(Cl)cc3)o2)c(=O)n(-c2ccccc2)n1C
→ 105	20	159	-0.1	-3	i	0.86
- Cc1cc(C)n2c3c(c(C#N)c2n1)CC(C)(C)OC3
→ 51	0	137	0.2	2	i	0.88
- COC(=O)CSc1nnc(-c2ccco2)n1-c1ccc(C)cc1
→ 104	-9	107	-1.7	-8	i	0.94
- NC(=O)c1nsc(C(=O)N(CC(=O)NCc2ccc3c(c2)OCO3)C2CCCCC2)c1N
→ 98	18	38	-2.5	-14	i	1
- CCOC(=O)C(NC(C)=O)(Nc1ccc(S(=O)(=O)Nc2cc(C)nc(C)n2)cc1)C(F)(F)F (centres undefined)
→ 99	.	.	0.6	-15	i	0.98
- COc1ccc(NC(=O)C2OC3OC(C)(C)OC3C3OC(C)(C)OC23)cc1 (centres undefined)
→ 97	16	141	-2.9	2	i	1.1
- COc1cccc(-c2nnc(NC(=O)c3ccc(S(=O)(=O)N4CCOCC4)cc3)o2)c1
→ 101	.	.	-1.5	9	i	0.97
- Nc1[nH]c(=S)[nH]c(=O)c1-c1ccccc1
→ 105	.	.	-0.5	-8	i	1
- Cc1ccccc1N1C(=O)N(c2cccc(C(F)(F)F)c2)C2CS(=O)(=O)CC21 (centres undefined)
→ 101	-42	99	-0.5	3	i	0.9
- N/C(=N\O)c1ccc(Cl)cc1Cl
→ 100	.	.	.	.	i	1
- Cc1ccc(C=Nc2ccc(N(C)C)cc2)o1
→ 71	64	106	-1.8	-4	i	0.89
- Cc1oc(-c2ccccc2F)nc1CS(=O)(=O)CC(=O)N1CCOCC1
→ 101	.	.	0.5	2	i	0.91
- Cc1ccc(NC(=O)c2cc(N3C(=O)C=CC3=O)ccc2N2CCOCC2)cc1Cl
→ 76	-270	12	2.8	-9	i	0.6
- O=C(CCSc1ccccc1)NCCN1CCOCC1
→ 98	-4	128	-1.3	-5	i	0.98
- CCOc1ccc(N(CC(=O)NC(C)(C)C)S(=O)(=O)c2c(C)noc2C)cc1
→ 104	.	.	-3.3	0	i	1
- CCC(NC(=O)c1ccccc1Br)c1ccccc1 (centres undefined)
→ 96	.	.	.	-2	i	1
- O=C(N/N=C\c1ccc(F)cc1)c1cc(OCC(F)(F)F)ccc1OCC(F)(F)F
→ 101	-16	125	0.5	10	i	0.81
- Cc1ccc(OC(=O)c2cccc(C(=O)Oc3ccc(C)cn3)n2)nc1
→ 94	.	.	-0.5	-5	i	0.89
- O=C(Nc1ccc(F)cc1)N1CCN2C(=O)c3ccccc3C12c1ccccc1 (centres undefined)
→ 95	71	86	-1.3	-6	i	0.75
- CCOC(=O)C1(CCCc2ccccc2)CCN(C(=O)CCCn2cncn2)CC1
→ 101	.	.	.	2	i	1
